Assay outcomes as filed in PubChem BioAssay.
HCMV NEC inh = disrupts HCMV UL50-UL53 complex binding; HTRF UL50-UL53 interaction, normalized percent inhibition; inhibition, % (test concentration not listed); hit rate 0.15% among 190,000;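 active = both replicates at 50% or more, plus weaker picks with an unusually low signal ratio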;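 note: stock transfer was 100 nL into about 20 µL; 0% = negative control wells and 100% = wells with untagged competitor protein; inactives centre near -12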
Sa growth 42C = S. aureus growth inhibition | S. aureus RN4220 growth, OD600, 20 h, 42 °C; hits give low values | relative growth, % (test concentration not listed) | hit rate 0.53% among 170,000;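 active = growth at 42 °C up to 50% and 20 or more points under that at 30 °C, or under 10% at both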;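 note: 300 nL library stock went into each well; scaled to the means of positive and negative controls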
GIV Gai3 FP = blocks GIV peptide binding to rat Galpha-i3. hit rate 0.42% among 210,000. P08753. percent of control (FP), % (concentration not given with the values). Galpha-i3/FITC-GIV peptide fluorescence polarization, 90 min; hits give low values; scaled: aluminum fluoride 0%, vehicle 100%;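 active = replicate mean at 85% of control or lower, very high polarization wells dropped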;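 note: wells of about 15 µL received 100 nL stock; the first replicate is given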
Target sequence (P08753 whole entry, looked up): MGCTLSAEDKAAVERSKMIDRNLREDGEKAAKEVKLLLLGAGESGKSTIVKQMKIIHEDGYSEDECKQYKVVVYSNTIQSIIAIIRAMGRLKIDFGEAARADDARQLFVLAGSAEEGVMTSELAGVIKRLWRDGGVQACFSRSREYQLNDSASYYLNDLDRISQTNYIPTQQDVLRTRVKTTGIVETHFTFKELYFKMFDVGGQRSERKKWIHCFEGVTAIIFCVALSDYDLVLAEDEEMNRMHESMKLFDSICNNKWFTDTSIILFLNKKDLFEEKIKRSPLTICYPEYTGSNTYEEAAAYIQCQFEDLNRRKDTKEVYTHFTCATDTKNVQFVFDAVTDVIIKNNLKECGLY
Sa growth 42C second temp = also measured in Sa growth 42C; calls as there; relative growth, %; measured here: growth at 30 °C;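 optical density after 20 h as mean of two plates; 100% = untreated growth and lower means inhibition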
* marks the source's active call; other numbers are inactive results.

For NNc1c(F)c(F)nc(F)c1F the results were HCMV NEC inh 2, Sa growth 42C 59 and Sa growth 42C second temp 20.
Screening CC(C)c1ccc(CN(Cc2ccco2)c2cnc(S(C)(=O)=O)nc2C(=O)Nc2ccc(F)cc2)cc1 returned HCMV NEC inh -28, Sa growth 42C 91, GIV Gai3 FP 97 and Sa growth 42C second temp 86.
O=C(O)C1CCCCC1C(=O)N(Cc1ccccc1)Cc1ccccc1 (stereo unspecified) was read as HCMV NEC inh -2, Sa growth 42C 165, GIV Gai3 FP 100 and Sa growth 42C second temp 80.
`CCc1ccc(NC(=O)CNC(=O)Cn2c(C)cc3ccccc3c2=O)cc1` gave HCMV NEC inh -1, Sa growth 42C 98, GIV Gai3 FP 109 and Sa growth 42C second temp 106.
For Cc1cc(C)c(NC(=O)COC(=O)C(O)c2ccccc2)c(C)c1 (stereo unspecified) the results were HCMV NEC inh -3, Sa growth 42C 104, GIV Gai3 FP 105 and Sa growth 42C second temp 92.
`CCNC(=O)N1c2ccc(CC)cc2C(C)=CC1(C)C` gave Sa growth 42C 83, GIV Gai3 FP 95 and Sa growth 42C second temp 80.
For COC(=O)C1CSCN1S(C)(=O)=O (stereo unspecified) the results were HCMV NEC inh 0, Sa growth 42C 106 and Sa growth 42C second temp 92.
CC1CCCC(NS(=O)(=O)c2cccc(C(=O)O)c2)C1C (stereo unspecified) was read as HCMV NEC inh -7, Sa growth 42C 106 and Sa growth 42C second temp 98.
For Cc1ccc(NC(=O)c2c(C)oc3ncn(C)c(=O)c23)cc1F the results were Sa growth 42C 97, GIV Gai3 FP 102 and Sa growth 42C second temp 84.
For CC(C)(C)c1ccc(OCc2ncc(S(=O)(=O)c3ccccc3)c(N)n2)cc1 the results were HCMV NEC inh -19, Sa growth 42C 85, GIV Gai3 FP 107 and Sa growth 42C second temp 88.
`Cc1ccsc1-c1nc(CSCC(=O)N2CCN(c3ccccc3)CC2)c(C)o1` gave HCMV NEC inh -1, Sa growth 42C 108, GIV Gai3 FP 104 and Sa growth 42C second temp 93.
For COc1ccc(NC(=O)/C(C#N)=C/c2ccc(OCc3cc(=O)n4nc(C)sc4n3)cc2)cc1 the results were HCMV NEC inh -19, Sa growth 42C 112, GIV Gai3 FP 100 and Sa growth 42C second temp 71.

The list goes on, starting with the last 7 of the part before.
`CCNC(=O)N1c2ccc(CC)cc2C(C)=CC1(C)C` gave Sa growth 42C 83, GIV Gai3 FP 95 and Sa growth 42C second temp 80.
For COC(=O)C1CSCN1S(C)(=O)=O (stereo unspecified) the results were HCMV NEC inh 0, Sa growth 42C 106 and Sa growth 42C second temp 92.
CC1CCCC(NS(=O)(=O)c2cccc(C(=O)O)c2)C1C (stereo unspecified) was read as HCMV NEC inh -7, Sa growth 42C 106 and Sa growth 42C second temp 98.
For Cc1ccc(NC(=O)c2c(C)oc3ncn(C)c(=O)c23)cc1F the results were Sa growth 42C 97, GIV Gai3 FP 102 and Sa growth 42C second temp 84.
For CC(C)(C)c1ccc(OCc2ncc(S(=O)(=O)c3ccccc3)c(N)n2)cc1 the results were HCMV NEC inh -19, Sa growth 42C 85, GIV Gai3 FP 107 and Sa growth 42C second temp 88.
`Cc1ccsc1-c1nc(CSCC(=O)N2CCN(c3ccccc3)CC2)c(C)o1` gave HCMV NEC inh -1, Sa growth 42C 108, GIV Gai3 FP 104 and Sa growth 42C second temp 93.
For COc1ccc(NC(=O)/C(C#N)=C/c2ccc(OCc3cc(=O)n4nc(C)sc4n3)cc2)cc1 the results were HCMV NEC inh -19, Sa growth 42C 112, GIV Gai3 FP 100 and Sa growth 42C second temp 71.
`Cc1cc(C2(O)CSc3nc4cc(C(F)(F)F)ccc4n32)ccc1Cl` (stereo unspecified) gave HCMV NEC inh -12, Sa growth 42C 69, GIV Gai3 FP 99 and Sa growth 42C second temp 56.
`CCOC(=O)c1c(C)c(S(=O)(=O)N2CCN(CC)CC2)c(C)n1C` gave HCMV NEC inh -25 and GIV Gai3 FP 105.
O=C1CSC(=S)N1/N=C/c1cc(Br)cc(Br)c1O was read as Sa growth 42C 87, GIV Gai3 FP 306 and Sa growth 42C second temp 29.
`O=C(Cc1ccccc1)Nc1ccccc1C(=O)O` gave HCMV NEC inh -6, Sa growth 42C 113, GIV Gai3 FP 105 and Sa growth 42C second temp 102.
Screening c1ccc(Nc2ccc(N3CCCC3)nn2)cc1 returned HCMV NEC inh -89, Sa growth 42C 96, GIV Gai3 FP 106 and Sa growth 42C second temp 97.
`Cc1ccc(C(=O)NCCSc2c[nH]c3ccccc23)cc1C` gave HCMV NEC inh -28, Sa growth 42C 103, GIV Gai3 FP 107 and Sa growth 42C second temp 94.
Screening Cc1ccc(-c2nc(CSc3nc(C)cc(=O)[nH]3)c(C)o2)cc1 returned HCMV NEC inh -1 and GIV Gai3 FP 103.
For CCN(Cc1ccccc1)C(=O)C(C)Oc1ccccc1 (stereo unspecified) the results were HCMV NEC inh -11, Sa growth 42C 91 and Sa growth 42C second temp 80.
For COc1cccc(NC(=O)N2CCN(S(=O)(=O)c3ccc4c(ccn4C)c3)CC2)c1 the results were HCMV NEC inh 16 and GIV Gai3 FP 95.
For O=C(COC(=O)/C=C/c1ccc(S(=O)(=O)N2CCCCCC2)cc1)Nc1ccc2[nH]c(=O)[nH]c2c1 the results were HCMV NEC inh -25, Sa growth 42C 104 and Sa growth 42C second temp 81.
`COc1cccc(-c2nc(CS(=O)(=O)CC(=O)NCc3cccc(Cl)c3)c(C)o2)c1` gave HCMV NEC inh -22, Sa growth 42C 99, GIV Gai3 FP 104 and Sa growth 42C second temp 92.
`Nc1nc2ccc(NC(=O)c3ccccc3)cc2s1` gave HCMV NEC inh 11 and GIV Gai3 FP 107.
For CCCn1c(=O)c2sccc2n2c(SCC(=O)Nc3ccc(Br)cc3)nnc12 the results were HCMV NEC inh -27 and GIV Gai3 FP 107.
Screening COc1ccc(NC(=O)N(C)CCc2noc(C3CCCCC3)n2)cc1OC returned HCMV NEC inh -24 and GIV Gai3 FP 108.
`O=C(NCc1ccncc1)c1cccc(S(=O)(=O)N2CCc3ccccc32)c1` gave HCMV NEC inh -19, Sa growth 42C 98 and Sa growth 42C second temp 85.
Screening COc1ccc(-n2nnnc2C2CCN(S(=O)(=O)c3cc(Cl)ccc3OC)CC2)cc1 returned HCMV NEC inh -32, Sa growth 42C 115, GIV Gai3 FP 93 and Sa growth 42C second temp 90.
Cc1ccc(C2C(C#N)=C(N)Nc3oc(C)nc32)cc1 (stereo unspecified) was read as HCMV NEC inh -53, Sa growth 42C 100, GIV Gai3 FP 98 and Sa growth 42C second temp 98.
`O=C(NCCCc1ccccc1)c1ccc(O)cc1` gave HCMV NEC inh 8, Sa growth 42C 96, GIV Gai3 FP 106 and Sa growth 42C second temp 101.
`COc1ccccc1NC(=O)C1=C(C)Nc2nc(SCc3cccc(F)c3)nn2C1c1ccc(C(=O)O)cc1` (stereo unspecified) gave HCMV NEC inh 0, Sa growth 42C 90, GIV Gai3 FP 105 and Sa growth 42C second temp 106.
For Cc1ccc(S(=O)(=O)CCN2CCC(O)(c3ccccc3)CC2)cc1 the results were HCMV NEC inh -16, Sa growth 42C 103, GIV Gai3 FP 103 and Sa growth 42C second temp 83.
Screening CN1C(=O)/C(=C/c2cn(Cc3ccccc3)c3ccccc23)c2ccccc21 returned Sa growth 42C 108, GIV Gai3 FP 104 and Sa growth 42C second temp 95.
`O=C(c1cc(-c2ccc(Cl)cc2)on1)N1CCOCC1` gave HCMV NEC inh 5 and GIV Gai3 FP 100.
For Cc1nc2ccc3nc(NC(=O)c4ccc(S(=O)(=O)N5CCCCC5)cc4)sc3c2s1 the results were HCMV NEC inh -2 and GIV Gai3 FP 102.
Screening CN(CCO)C(C(=O)Nc1ccc(F)cc1)c1ccccc1 (stereo unspecified) returned HCMV NEC inh 12, Sa growth 42C 110 and Sa growth 42C second temp 98.
For COc1ccc(Cl)cc1Nc1cc(-c2ccc(C)cc2)nc(C)n1 the results were HCMV NEC inh 6 and GIV Gai3 FP 102.
CCc1ccc2nc(N3CCC(C(=O)NCC4COc5ccccc5O4)CC3)sc2c1 (stereo unspecified) was read as Sa growth 42C 99, GIV Gai3 FP 95 and Sa growth 42C second temp 98.
CCC(=O)Nc1cccc(-c2cn3c(C)csc3n2)c1 was read as Sa growth 42C 115, GIV Gai3 FP 95 and Sa growth 42C second temp 88.
`N#CC1=C2Sc3ccccc3N2CC1=O` gave HCMV NEC inh -16, Sa growth 42C 58, GIV Gai3 FP -55* and Sa growth 42C second temp 33.
For COc1ccc(C2c3c(n(C)c4ccccc34)C(=O)N2CC(=O)Nc2cccc(F)c2)cc1 (stereo unspecified) the results were Sa growth 42C 119, GIV Gai3 FP 104 and Sa growth 42C second temp 95.
For COc1ccc(C2C3=C(CC(c4ccc(OC)c(OC)c4)CC3=O)Nc3onc(C)c32)cc1O (stereo unspecified) the results were HCMV NEC inh -13 and GIV Gai3 FP 100.
Screening COc1cc2[nH]c(=O)n(CCCC(=O)NCc3ccccc3)c(=O)c2cc1OC returned HCMV NEC inh 22, Sa growth 42C 94, GIV Gai3 FP 110 and Sa growth 42C second temp 100.
`O=C(Nc1ccc(Br)cc1)c1cnn(-c2ccc(F)cc2)c1` gave HCMV NEC inh 3 and GIV Gai3 FP 101.
CCOC(=O)COc1cc(=O)n(CC)c2ccccc12 was read as HCMV NEC inh -17, Sa growth 42C 88, GIV Gai3 FP 101 and Sa growth 42C second temp 85.
For Cc1ccc(CNS(=O)(=O)c2ccc(-c3nnc(C)o3)s2)o1 the results were HCMV NEC inh -65 and GIV Gai3 FP 110.
Screening Cc1ccc(S(=O)(=O)CCc2nnc(NC(=O)CCCC(=O)Nc3cc(C)on3)s2)cc1 returned HCMV NEC inh 3, Sa growth 42C 107, GIV Gai3 FP 108 and Sa growth 42C second temp 110.
`Cc1ccc(C(=O)NC2(C(F)(F)F)C(=O)Nc3c2c(=O)[nH]c(=O)n3CCc2ccccc2)cc1` (stereo unspecified) gave HCMV NEC inh -12, Sa growth 42C 83, GIV Gai3 FP 97 and Sa growth 42C second temp 88.
CCN(CC)CCNc1cc(C)nc2c(-c3ccc(F)cc3)c(C(F)(F)F)nn12 was read as HCMV NEC inh -5 and GIV Gai3 FP 97.
For Cc1ccc2c(cnn2C(=O)CCCC(=O)O)c1 the results were Sa growth 42C 98, GIV Gai3 FP 104 and Sa growth 42C second temp 87.
`Cc1nc(-c2nnc(SCc3ccc(Cl)cc3)o2)cs1` gave HCMV NEC inh 2, Sa growth 42C 104, GIV Gai3 FP 106 and Sa growth 42C second temp 83.
CC1CCN(S(=O)(=O)c2cn(CC(=O)Nc3ccc(F)c(Cl)c3)c(=O)c3ccccc23)CC1 was read as HCMV NEC inh -17, Sa growth 42C 100, GIV Gai3 FP 105 and Sa growth 42C second temp 91.
`O=C1/C(=C/c2ccc(Cl)cc2)COC/C1=C\c1ccc(Cl)cc1` gave HCMV NEC inh -38, Sa growth 42C 90, GIV Gai3 FP 98 and Sa growth 42C second temp 89.
For CCOc1nc(Cl)nc(N2CCCCC2C)n1 (stereo unspecified) the results were HCMV NEC inh 1, Sa growth 42C 80 and Sa growth 42C second temp 90.
Screening CSc1nc(C)nc(Nc2cccc(C(F)(F)F)c2)c1C#N returned HCMV NEC inh -15, Sa growth 42C 87, GIV Gai3 FP 103 and Sa growth 42C second temp 94.
Screening O=C1CC(=O)Nc2cc(S(=O)(=O)N3CCOc4ccccc43)ccc2N1 returned Sa growth 42C 115, GIV Gai3 FP 101 and Sa growth 42C second temp 89.
`c1ccc2sc(COc3ncnc4sccc34)nc2c1` gave HCMV NEC inh -14, Sa growth 42C 96 and Sa growth 42C second temp 97.
For CCOc1cc(C2Nc3ccccc3NC3=C2C(=O)CC(c2ccccc2)C3)ccc1OC(C)=O (stereo unspecified) the results were HCMV NEC inh -19 and GIV Gai3 FP 98.
Screening Cn1c(SCc2ccccc2)nnc1-c1ccc2nonc2c1 returned HCMV NEC inh -18, Sa growth 42C 104, GIV Gai3 FP 96 and Sa growth 42C second temp 83.
O=C(CCSc1ccccc1)Nc1nnc(-c2ccccc2)o1 was read as HCMV NEC inh -11, Sa growth 42C 12, GIV Gai3 FP 103 and Sa growth 42C second temp 20.
For Cc1ccc(C)n1-c1c(C(=O)NCC2CCCO2)sc2ncccc12 (stereo unspecified) the results were HCMV NEC inh -18 and GIV Gai3 FP 99.
c1ccc(-c2csc(N3CCc4ccccc43)n2)cc1 was read as HCMV NEC inh -1, Sa growth 42C 95, GIV Gai3 FP 107 and Sa growth 42C second temp 96.

5 records drawn at random from those above:
`Cc1nc(-c2nnc(SCc3ccc(Cl)cc3)o2)cs1` gave HCMV NEC inh 2, Sa growth 42C 104, GIV Gai3 FP 106 and Sa growth 42C second temp 83.
`O=C1/C(=C/c2ccc(Cl)cc2)COC/C1=C\c1ccc(Cl)cc1` gave HCMV NEC inh -38, Sa growth 42C 90, GIV Gai3 FP 98 and Sa growth 42C second temp 89.
For CCOc1nc(Cl)nc(N2CCCCC2C)n1 (stereo unspecified) the results were HCMV NEC inh 1, Sa growth 42C 80 and Sa growth 42C second temp 90.
Screening O=C1CC(=O)Nc2cc(S(=O)(=O)N3CCOc4ccccc43)ccc2N1 returned Sa growth 42C 115, GIV Gai3 FP 101 and Sa growth 42C second temp 89.
For CCOc1cc(C2Nc3ccccc3NC3=C2C(=O)CC(c2ccccc2)C3)ccc1OC(C)=O (stereo unspecified) the results were HCMV NEC inh -19 and GIV Gai3 FP 98.
